# FGF22 binding = FGF22 (human) thermal shift binding; recombinant FGF22 thermal shift, SYPRO orange fluorescence; percent of sucrose octasulfate shift, DMSO zero; AID 651658; hit rate 1.5% among 340,000; Q9HCT0; calls only at 9.99 µM;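 active means melting point raised past a set limit in the mean and every replicate; inconclusive means no clear call; three in four hits are not shown here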
# UCH37 DUB inh = human UCH37 deubiquitinating enzyme inhibition | Q9Y5K5 | purified proteasome/UCH37, Ub-AMC cleavage fluorescence | inhibition, % (test concentration not listed) | hit rate 0.33% among 330,000 | AID 588478;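 active means mean of two replicates above 20%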;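 further: 0% = compound-free wells with enzyme and 100% = wells lacking proteasome; stock transfer was 100 nL into about 20 µL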
#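 Material: human UCH37 enzyme supplied as purified proteasome complex / Amount: 0.15 nM proteasome as dispensed / Buffer or medium: pH 7.4 Tris-HCl (50 mM) with ovalbumin, ATP-MgCl2, DTT / Times: preincubation 30 min, reaction 25 min, room temperature / Technique: AMC fluorescence from Ub-AMC cleavage, excitation 355 nm, emission 460 nm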
# AF4-AF9 inh = inhibitors of human MLL-AF4/AF9 interaction; P42568; AlphaScreen, biotin-AF4 peptide binding to FLAG-AF9; inhibition, % at 10 µM; hit rate 0.47% among 350,000;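 active means every replicate reaching a set inhibition limit, whatever the replicate mean, cut at about 25% in these data; inconclusive means mean inhibition reaches that limit but some replicates miss it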;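 further: 0% = plate neutral control median and 100% = total signal loss; the record names both 10 and 1 µM as test concentration; the first replicate is given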
# Target sequence (P42568 whole entry, looked up): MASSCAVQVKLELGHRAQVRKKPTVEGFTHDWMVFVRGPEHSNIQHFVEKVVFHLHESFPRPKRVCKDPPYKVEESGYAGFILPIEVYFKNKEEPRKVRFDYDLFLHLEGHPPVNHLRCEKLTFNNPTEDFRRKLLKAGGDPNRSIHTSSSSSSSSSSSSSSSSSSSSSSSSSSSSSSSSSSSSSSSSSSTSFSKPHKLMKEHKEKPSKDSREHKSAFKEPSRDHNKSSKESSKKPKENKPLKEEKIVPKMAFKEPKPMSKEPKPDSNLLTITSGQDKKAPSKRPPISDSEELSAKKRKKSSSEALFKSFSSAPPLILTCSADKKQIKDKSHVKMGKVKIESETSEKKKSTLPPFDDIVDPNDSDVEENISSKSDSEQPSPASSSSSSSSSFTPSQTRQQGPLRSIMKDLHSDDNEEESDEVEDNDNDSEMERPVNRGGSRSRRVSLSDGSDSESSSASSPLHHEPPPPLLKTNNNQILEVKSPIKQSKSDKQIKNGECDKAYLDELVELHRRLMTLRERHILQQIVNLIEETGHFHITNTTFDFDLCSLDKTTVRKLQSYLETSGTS
# Vif A3G = HIV-1 Vif–A3G interaction blockers – biochemical, TR-FRET, GST-Vif 1-94, biotin-A3G peptide, dose response retest, primary screen (AID 1117319). TR-FRET GST-Vif / biotin-A3G peptide binding; higher % means a stronger effect; test concentration not given here; strong numbers were not always called active. one-dose inhibition, %; IC50 in µM for titrated hits. hit rate 0.57% among 260,000;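 active means above the screen mean plus three standard deviations and confirmed in dose response; inconclusive means results disagree or hit not tested in dose response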;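 further: Vif residues 1-94 fused to GST binding biotinylated APOBEC3G peptide 110-148; 0% = full assay without inhibitor and 100% = GST in place of GST-Vif; retest series ran down from 100 µM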
# E coli growth = blocks Escherichia coli growth; hit rate 0.21% among 330,000; AID 1053175; OD600, 23 h; hits give low values; OD600 absorbance (concentration not given with the values);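 active means OD600 absorbance below the run mean of sample wells minus 3.6 SD, in any replicate, cut at about 0.56 in these data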;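 further: stock transfer was 300 nL into about 60 µL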
# HNF4A DNA FP = change in binding of human HNF4 alpha to DNA. hit rate 0.3% among 360,000. activity change, % at 10 µM. HNF4a-FITC DNA binding, fluorescence polarization, 1 h; in the data active means activity change above about 30%, passing the limit was not always enough;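 further: controls were the assay level and a saturating level of protein; the project sought stronger binding though the title names inhibitors; some compounds called inactive have numbers as strong as hits; positive values seem to mean higher polarization but the record does not say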
# Target sequence (P41235 whole entry, looked up): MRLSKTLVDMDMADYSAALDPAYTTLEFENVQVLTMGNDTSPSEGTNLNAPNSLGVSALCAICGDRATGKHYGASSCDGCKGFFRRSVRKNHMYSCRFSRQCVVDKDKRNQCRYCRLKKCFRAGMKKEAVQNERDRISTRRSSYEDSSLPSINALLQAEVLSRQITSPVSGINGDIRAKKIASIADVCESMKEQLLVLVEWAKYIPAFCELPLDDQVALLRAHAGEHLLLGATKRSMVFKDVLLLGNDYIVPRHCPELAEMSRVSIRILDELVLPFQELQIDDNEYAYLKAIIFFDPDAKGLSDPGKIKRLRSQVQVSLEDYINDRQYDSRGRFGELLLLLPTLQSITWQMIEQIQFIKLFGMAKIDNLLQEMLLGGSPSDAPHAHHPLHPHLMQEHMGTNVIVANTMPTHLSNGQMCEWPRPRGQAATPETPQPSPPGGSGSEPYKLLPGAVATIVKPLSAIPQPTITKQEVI
# RanGTP-Imp inh = inhibitors of RanGTP-importin-beta interaction, primary screen, biochemical, FRET, CFP-Ran, YFP-importin-beta, homogeneous; cell-free CFP-Ran/YFP-importin-beta FRET ratio; inhibition, % (test concentration not listed); hit rate 1.1% among 300,000; AID 2216;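 active means most replicates above 15%; inconclusive means exactly half above 15%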;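 further: 0% = DMSO wells and 100% = Ran loaded with GDP instead of GTP; wells of about 40 µL received 100 nL stock; the first replicate is given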
# Active calls of the source: *; i = inactive; ? = inconclusive; / = not tested or not shown; & = joins results of further samples. Some of the compounds tested; count on the stated rates, not on these rows.
SMILES,FGF22 binding,UCH37 DUB inh,AF4-AF9 inh,Vif A3G,E coli growth,HNF4A DNA FP,RanGTP-Imp inh
Cn1cc(CN2C[C@H]3CC[C@H]2C3)c(-c2ccccc2F)n1,i,0.3,2.1,-2%,0.68,-1.8,3.8
Cc1ccc(C)c(NC(=O)CN(C)C(=O)c2cc(-c3cccs3)nn2-c2ccccc2)c1,i,-0.7,-0.9,/,0.69,6.0,-0.2
CCN(CC)c1ncn(Cc2c(Cl)cccc2Cl)c2ncnc1-2,/,1.5,/,-3%,0.73,-0.3,2.7
CC1CCCN(S(=O)(=O)c2ccccc2[N+](=O)[O-])C1 (centres undefined),/,4.7,/,/,0.71,-2.6,2.8
Cc1cc2nncn2c(Cc2ccccc2)n1,/,2.0,/,0%,0.78,-2.9,0.8
Cc1cc(Br)ccc1NC(=S)NC1CCCC1,i,1.5,-0.2,3%,0.68,-1.2,-1.2
c1ccc(-c2csc(Nc3cccnc3)n2)nc1,/,4.8,/,-1%,0.63,-0.8,1.9
CCOc1ccc(CCNC(=O)c2ccc(Cl)c(S(=O)(=O)N3CCOCC3)c2)cc1OCC,i,1.2,-0.1,10%,0.65,-3.4,0.9
Cc1cc(O)c(/C=N/c2ccccn2)c(=O)o1,/,/,/,?,/,-1.3,3.9
COC(=O)c1ccccc1NC(=O)c1cc2nc(C3CC3)cc(C(F)(F)F)n2n1,/,-280,/,14%,0.76,-4.3,-2.5
CSC1=NCCCN1C(=O)c1c(-c2ccccc2Cl)noc1C,i,0.6,/,0%,0.65,-0.4,-1.6
CCOc1ccc(S(=O)(=O)N2CCN(C(=O)C3CC3C)CC2)cc1 (centres undefined),i,2.2,2.7,6%,0.68,0.7,/
Cc1c(CN2CCC(n3nccc3NC(=O)C3CCOC3)CC2)[nH]c2ccccc12 (centres undefined),i,3.6,4.7,/,0.71,2.5,1.5
O=C(c1cccc([N+](=O)[O-])c1)N1CCN(Cc2ccc3c(c2)OCO3)CC1,i,3.8,-1.1,1%,0.68,-2.5,-14
CCOC(=O)C(=O)/C(=C\N(C)C)c1onc(-c2ccccc2)c1C(=O)OC,/,7.7,/,10%,0.78,3.6,1.0
Cn1cnc2c1c(=O)n(Cc1cccc(Cl)c1)c(=O)n2C,i,1.7,-8.3,5%,0.66,0.1,?
NS(=O)(=O)c1ccc(CCNC(=O)NC23CC4CC(CC(C4)C2)C3)cc1,i,-2.6,-6.0,4%,0.64,0.9,-1.1
O=C1C2C3C=CC(O3)C2C(=O)N1N=Cc1cccc2ccccc12 (centres undefined),i,6.8,-2.4,4%,0.68,1.6,/
O=C1CS/C(=N/N=C/c2cccs2)N1,i,/,-1.5,3%,/,14,3.5
Cc1ccc(N2C(=O)c3ccccc3C2Nc2cccnc2)nc1 (centres undefined),i,0.7,1.5,4%,0.74,6.1,3.9
COc1ccc(C)cc1N(C(=O)Cn1nnc(-c2ccc(C)o2)n1)C(C(=O)NC1CCCC1)c1ccncc1 (centres undefined),i,0.7,-0.5,/,0.7,-0.8,4.0
O=C(Nc1nccs1)c1cn(-c2ccccc2)nc1-c1ccncc1,i,-35,0.0,-2%,0.68,-3.6,-0.4
CCCc1nc2sc(C(=O)OCC)c(N)c2c2c1COC(C)(C)C2,/,-438,/,-1%,0.75,-0.8,0.2
COc1ccc(NC(=O)Cc2cccc3ccccc23)cc1,i,1.2,-4.9,/,0.68,1.9,6.9
Cc1ccc(NC(=O)CSC(C)C(=O)OC(C)C(=O)NC2CCCCC2C)cc1 (centres undefined),i,2.8,0.7,2%,0.67,-2.2,/

# Remaining list, next part
SMILES,FGF22 binding,UCH37 DUB inh,AF4-AF9 inh,Vif A3G,E coli growth,HNF4A DNA FP,RanGTP-Imp inh
CCc1ccccc1NC(=O)c1cc(-c2cccc(O)c2)on1,i,3.6,1.4,-1%,0.67,3.6,7.6
COc1cnc(-c2ccccc2)nc1Oc1ccc(Cl)cc1C,i,-1.2,-0.8,3%,0.66,1.9,1.0
CCC(C(=O)Nc1cccnc1)n1c(=O)[nH]c2ccccc2c1=O (centres undefined),i,-0.6,-3.3,/,0.69,4.4,-1.9
COc1cc(/C=N/N=C2/NC(=O)C(Cc3ccccc3)S2)ccc1O (centres undefined),i,/,-1.5,/,/,-6.1,4.3
CC(C)(C)n1nnnc1C(c1ccccc1OC(F)(F)F)N1CCN(C/C=C/c2ccccc2)CC1 (centres undefined),i,/,8.1,/,/,-0.7,/
Clc1ccccc1CSc1cnnc2ccccc12,i,5.2,-0.9,-4%,0.7,13,/
Cn1c(SCC(=O)Nc2ccccc2F)nnc1C1CCCCC1,i,0.4,-14,/,0.71,-0.8,12
COC(=O)c1ccc(CSc2nc3c(c(=O)n2-c2ccc(F)cc2)SCC3)o1,/,4.3,/,3%,0.71,3.4,3.4
NC(=O)C[n+]1ccc(/C=N/O)cc1,/,/,-0.4,6%,/,-1.6,-1.0
N=c1sccn1CC(=O)NCCc1ccc(Cl)cc1Cl,/,-0.4,/,-3%,/,4.4,/
Cc1cccc(-n2ncc(Cl)c(Cl)c2=O)c1,i,5.3,-0.4,-8%,0.66,2.9,-1.0
O=C(CCNS(=O)(=O)c1ccccc1)OCC(=O)c1ccc(Br)cc1,/,1.3,-1.3,6%,0.69,0.2,-3.4
COc1ccccc1OCCSc1nc2ccccc2n1CC(O)CO (centres undefined),i,-1.0,-0.1,/,0.67,3.9,6.7
COC(=O)c1cccnc1NC(=S)NNC(=O)c1ccccc1,/,2.2,/,19%,0.66,-0.5,27*
Cc1cccc(C(=O)N2[C@@H](C(C)C)COc3cc(Br)ccc3S2(=O)=O)c1,i,/,0.3,/,/,0.4,/
CCOC(=O)N(C)c1c(CC)nc2c(OCc3ccc(Cl)cc3)cccn12,i,/,-4.4,/,/,1.5,/
Cc1cccc(C)c1NC(=O)C(c1ccccc1)N(C)CCc1ccccc1 (centres undefined),i,/,-2.4,/,/,2.0,/
CC12CCC(C(=O)NCCN3CCCCC3)(CC1=O)C2(C)C (centres undefined),i,-1.3,0.9,68%,0.67,1.2,-3.4
COc1cc(/C=C2\SC(=S)N(C(C(=O)O)c3ccccc3)C2=O)cc(OC)c1OC (centres undefined),i,5.6,/,-7%,0.73,-0.5,-3.4
COc1ccc(CNC(=O)CN(Cc2ccc(OC)cc2)C(=O)CCC(=O)Nc2nccs2)cc1,i,-0.6,1.9,/,0.71,1.5,1.4
CCN1C(=O)c2ccccc2Sc2ccc(C(=O)NCCN3CCOCC3)cc21,i,3.5,-7.0,/,0.69,0.2,-2.8
O=C(COC(=O)C1CC2CCCC(C1)C2=O)NNC(=O)c1ccccc1F (centres undefined),i,0.6,0.9,/,0.64,1.9,/
COc1ccc(NC(=O)CN(C)C(=O)c2cc(-c3ccc(Cl)cc3)nc3ccccc23)cc1,i,1.2,0.4,3%,0.69,1.2,-0.5
C[C@H](NC(=O)c1ccco1)C(=O)NNC(=O)c1ccc(F)cc1,i,-0.6,4.7,0%,0.7,4.8,/
Cc1ccc(N(Cc2cc3ccc(C)cc3[nH]c2=O)S(=O)(=O)c2ccccc2)cc1,i,-1.7,-3.6,-19%,0.67,-2.2,?

# Limited to Vif A3G, AF4-AF9 inh and E coli growth, for some of the entries so far:
compound,Vif A3G,AF4-AF9 inh,E coli growth
COc1cc(/C=N/N=C2/NC(=O)C(Cc3ccccc3)S2)ccc1O (centres undefined),/,-1.5,/
COC(=O)c1cccnc1NC(=S)NNC(=O)c1ccccc1,19%,/,0.66
COc1cc(/C=C2\SC(=S)N(C(C(=O)O)c3ccccc3)C2=O)cc(OC)c1OC (centres undefined),-7%,/,0.73
Cc1ccc(N(Cc2cc3ccc(C)cc3[nH]c2=O)S(=O)(=O)c2ccccc2)cc1,-19%,-3.6,0.67

# Next section:
SMILES,FGF22 binding,UCH37 DUB inh,AF4-AF9 inh,Vif A3G,E coli growth,HNF4A DNA FP,RanGTP-Imp inh
CSc1ccc2[nH]c(=O)cc(C)c2c1,/,-145,/,-7%,0.66,-1.7,2.2
Cc1ccccc1OCC(=O)Nc1ccc(NC(=O)c2ccco2)cc1,i,-4.9,-2.4,/,0.58,-0.3,-2.7
CCCCn1c(N)c(N(CC)C(=O)c2cc(S(=O)(=O)N3CCCCCC3)ccc2OC)c(=O)[nH]c1=O,i,-0.7,-5.6,-6%,0.67,2.4,5.5
CCc1c(O)nc(SCC(=O)Nc2nc3ccccc3s2)n(-c2ccccc2)c1=O,i,4.1,6.0,-3%,0.72,0.9,-2.4
COc1ccc(/C=N/NC(=O)c2nnn(-c3nonc3N)c2CN(C)c2ccccc2)cc1,i,/,0.2,/,/,-0.3,-0.2
COc1ccc(Cl)cc1C(=O)NNC(=O)CN1C(=O)C2CC=CCC2C1=O (centres undefined),i,-0.5,1.0,-2%,0.69,-3.4,-1.5
CS(=O)(=O)Nc1ccc2c(c1)[C@H]1C[C@H](CC(=O)NCc3cccc(F)c3)O[C@@H](CO)[C@H]1O2,i,/,-0.3&-3.8,/,/,-3.3,/
NS(=O)(=O)c1ccc(CCNC(=O)CSc2ncnc3ccccc23)cc1,i,1.4,1.7,-5%,0.74,0.6,-0.9
Cc1ccc(SCCNC(=O)C(C)C)cc1,/,2.9,/,-1%,0.67,1.4,0.2
COc1ccc(NC(=O)Cn2nnc(C(=O)NCc3ccc(C)cc3)c2N)cc1Cl,i,4.2,-0.4,3%,0.68,-0.3,-1.1
COc1ccc(C2c3c(-c4cc(Cl)c(C)cc4O)n[nH]c3C(=O)N2Cc2cccnc2)cc1OC (centres undefined),/,2.6,/,-7%&-1%,0.66,1.8,-2.5
CSc1ncccc1C(=O)OCC(=O)c1ccc2c(c1)NC(=O)CO2,i,0.4,-5.4,-30%,0.74,4.7,8.4
Cn1c(OCc2cccnc2)nc2c1c(=O)n(Cc1ccc(F)cc1)c(=O)n2C,i,1.7,-1.0,7%,0.67,3.2,0.9
Cc1csc(NC(=O)CSc2nc3nc(C)cc(C)n3n2)n1,i,0.1,-5.1,/,0.68,0.0,/
CCOC(=O)/C(=C\c1cccc(O)c1)c1nc2sc(C)c(C)c2c(=O)[nH]1,i,1.6,1.2,/,0.66,4.4,0.9
COc1cccc(NC(=S)NCc2ccccn2)c1,/,3.2,/,/,0.72,2.5,0.6
COc1cc(OC)c(/C=N/NC(=O)Cn2nc([N+](=O)[O-])cc2C)c(OC)c1,i,/,/,16%,/,-1.6,-2.8
COc1cccc(-c2ncc3ccccc3c2COC(=O)c2ccc(Br)cc2)c1,i,1.7,-0.4,/,0.7,-2.1,/
O=C(CCC(=O)c1cccs1)NNC(=O)c1ccccc1O,i,-4.4,-1.5,0%,0.68,-1.4,5.4
COc1ccccc1-n1c(-c2ccc(Cl)cc2)c[nH]c1=S,i,-1.0,-3.1,-27%,0.61,-0.9,3.2
Cc1cc(C)cc(NC(=S)/C(=C(\[O-])c2ccc(Cl)cc2Cl)[n+]2ccc(C(C)(C)C)cc2)c1,i,-5.5,4.3,-38%,0.68,2.9,?
CCN(CC(=O)NCc1ccc(Cl)cc1)C(=O)c1c(C)noc1C,i,-1.2,-5.3,-5%,0.67,6.3,/
Nc1ccccc1C#CCCCCO,i,0.6,2.0,/,0.69,-4.4,-3.7
CC(C)(C)OC(=O)NCCc1nnc(SCC(=O)Nc2ccc(Br)cc2)o1,i,0.9,/,1%,0.62,2.0,3.8
Cc1ccc(S(=O)(=O)N2CCCC2CNC(=O)C(=O)NCCN2CCOCC2)cc1 (centres undefined),i,-0.1,8.5,-1%,0.63,3.0,-2.8

# Two records picked at random from the list so far, as already listed:
SMILES,FGF22 binding,UCH37 DUB inh,AF4-AF9 inh,Vif A3G,E coli growth,HNF4A DNA FP,RanGTP-Imp inh
NS(=O)(=O)c1ccc(CCNC(=O)NC23CC4CC(CC(C4)C2)C3)cc1,i,-2.6,-6.0,4%,0.64,0.9,-1.1
CCN(CC(=O)NCc1ccc(Cl)cc1)C(=O)c1c(C)noc1C,i,-1.2,-5.3,-5%,0.67,6.3,/
